# From PubChem
# Beta cell apopt: beta cell apoptosis inhibition. INS-1E cytokine-induced death, ATP luminescence, 48 h; percent of positive-control rescue, neutral wells zero. protection from apoptosis, % (test concentration not listed). actives 0.8% (n = 300,000). AID 435005;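 active = all replicates at 75% or more, or half of them and the mean; inconclusive = half reach 75% but not the mean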;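 note: 0% = cytokine-treated negative control wells and 100% = positive control rescue; higher means more ATP so stronger rescue from cytokine killing; wells of about 40 µL received 100 nL stock; the first replicate is given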
# Vif TR-FRET: inhibitors of Vif binding to APOBEC3G peptide, primary screen, biochemical, TR-FRET, GST-Vif 1-94, biotin-A3G peptide, dose response retest (AID 1117319); one-dose inhibition, %; IC50 in µM for titrated hits; actives 0.57% (n = 260,000); TR-FRET GST-Vif / biotin-A3G peptide binding; higher % means a stronger effect; test concentration not given here; strong numbers were not always called active;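 active = above the screen mean plus three standard deviations and confirmed in dose response; inconclusive = results disagree or hit not tested in dose response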;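 note: Vif residues 1-94 fused to GST binding biotinylated APOBEC3G peptide 110-148; 0% = full assay without inhibitor and 100% = GST in place of GST-Vif; retest series ran down from 100 µM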
# RanGTP-Imp inh: disruptors of Ran-importin-beta complex formation – biochemical, FRET, CFP-Ran, YFP-importin-beta, homogeneous, primary screen; cell-free CFP-Ran/YFP-importin-beta FRET ratio; inhibition, % (test concentration not listed); actives 1.1% (n = 300,000);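 active = most replicates above 15%; inconclusive = exactly half above 15%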;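 note: 0% = DMSO wells and 100% = Ran loaded with GDP instead of GTP; wells of about 40 µL received 100 nL stock; the first replicate is given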
# T cruzi repl: T. cruzi replication inhibition | T. cruzi beta-gal in NIH3T3, luminescence, 90 h | actives 1.4% (n = 300,000) | inhibition, % (concentration not given with the values);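 active = mean inhibition across valid replicates above about 55%, limit read from the data; inconclusive = mean below that limit but half or more replicates reach it; inactive = mean below it, under half of replicates reach it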;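 note: signal also drops with host cell toxicity which is not excluded here; 0% = plate median of DMSO wells and 100% = zero luminescence signal; higher percent means less beta-gal luminescence so fewer parasites; stock transfer was 50 nL into about 50 µL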
# LANA-H2B inh: blocks KSHV LANA binding to histone H2A/H2B | actives 0.6% (n = 320,000) | cell-free LANA-H2A/H2B peptide, fluorescence polarization | inhibition, % (no concentration beside the values) | Q9QR71 | AID 2629; in the data active = inhibition mostly above about 10%, no sharp cut-off; inactive = mostly below about 6.7%;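 note: stock transfer was 7.5 nL into about 10 µL; 0% = median of vehicle wells and 100% = median of positive control wells; one replicate is shown; the record names a cut of 25% in any replicate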
# Calb FLC: C. albicans growth modulation with fluconazole; C. albicans CaCi-2 (fluconazole-resistant clinical isolate) + fluconazole, Alamar Blue growth, 48 h; growth inhibition, % (test concentration not listed); actives 0.57% (n = 300,000); AID 1979;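 active = most replicates above 75%; inconclusive = exactly half above 75%; inactive = most below 75%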;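 note: all wells also contain fluconazole at 8 µg/ml as a sub-toxic cotreatment; 0% = median of DMSO wells and 100% = median of geldanamycin control wells; wells of about 8 µL received 7.5 nL stock; the first replicate is given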
# A1 inh: inhibitors of the anti-apoptotic protein A1, read as caspase activation; MEF A1-2A-BIM cells, Caspase-Glo 3/7 luminescence, 3 h; percent of clofoctol response, vehicle zero; actives 0.066% (n = 330,000); AID 2462; caspase activation, % (concentration not given with the values);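 active = over half of replicate activation scores above 10%, or exactly half above 10 with the replicate mean above 10; inconclusive = replicate mean below 10 yet half the replicates above 10; inactive = over half of replicates below 10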;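 note: wells of about 30 µL received 50 nL stock; many hits fall short of the cut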
# MLL AF4-AF9 inh: blocks AF4 peptide binding to human AF9 | P42568 | AlphaScreen, biotin-AF4 peptide binding to FLAG-AF9 | inhibition, % at 10 µM | actives 0.47% (n = 350,000);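 active = every replicate reaching a set inhibition limit, whatever the replicate mean, cut at about 25% in these data; inconclusive = mean inhibition reaches that limit but some replicates miss it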;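 note: 0% = plate neutral control median and 100% = total signal loss; the record names both 10 and 1 µM as test concentration; the first replicate is given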
# Target sequence (P42568 whole entry, looked up): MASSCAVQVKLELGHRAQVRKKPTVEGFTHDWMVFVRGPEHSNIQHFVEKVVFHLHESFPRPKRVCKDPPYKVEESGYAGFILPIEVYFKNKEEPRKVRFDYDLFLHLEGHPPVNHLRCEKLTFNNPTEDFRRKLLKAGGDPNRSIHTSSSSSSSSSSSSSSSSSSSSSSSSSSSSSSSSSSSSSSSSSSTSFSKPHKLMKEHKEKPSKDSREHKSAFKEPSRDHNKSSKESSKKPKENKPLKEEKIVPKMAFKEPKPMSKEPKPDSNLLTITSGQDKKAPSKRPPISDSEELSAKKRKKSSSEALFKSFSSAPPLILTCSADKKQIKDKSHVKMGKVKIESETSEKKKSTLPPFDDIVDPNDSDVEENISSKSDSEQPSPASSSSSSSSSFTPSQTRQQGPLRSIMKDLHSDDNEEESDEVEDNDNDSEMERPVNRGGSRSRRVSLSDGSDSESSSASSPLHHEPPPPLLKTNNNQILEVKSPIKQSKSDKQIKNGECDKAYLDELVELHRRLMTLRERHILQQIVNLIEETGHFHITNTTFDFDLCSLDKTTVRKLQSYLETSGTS
# * = called active by the depositor; ? = inconclusive; . = no result given; & = joins results of further samples; ! = a repeat was not active. Rows were taken by chance, and some 4.3% of all compounds hit somewhere here.
SMILES,Beta cell apopt,Vif TR-FRET,RanGTP-Imp inh,T cruzi repl,LANA-H2B inh,Calb FLC,A1 inh,MLL AF4-AF9 inh
CC(C)C(C(=O)N1CCN(C(=O)OC(C)(C)C)CC1)n1cc(-c2cn([C@@H](C)C(=O)N3CCN(C(=O)OC(C)(C)C)CC3)nn2)nn1 (stereo not given in full),.,1%,4.1,-1,.,6,.,.
Cc1ccc(OCC(=O)N(Cc2ccc(N(C)C)cc2)C2CCS(=O)(=O)C2)cc1 (stereo not given),0,?,1.9,14,-1.7,-9,1.4,.
CCn1c(Sc2ccc([N+](=O)[O-])cn2)nnc1-c1ccco1,-3,.,-3.0,-40,-5.0,-13,0.1,-7.6
COCCn1c(N)c(N(Cc2ccccc2)C(=O)Cc2ccccc2F)c(=O)[nH]c1=O,2,-12%,.,.,2.7,7,0.0,-1.4
Cc1ccc(NC(=S)NN2CCN(C)CC2)c(C)c1,-4,3%,-3.9,0,1.9,-19,-0.3,-2.1
Cc1cc(NC(=O)CSc2nc(C3CC3)nc3sc4c(c23)CCC(C)C4)no1 (stereo not given),0,.,?,0,5.5,-5,-0.2,.
Cc1ccc(N2CC(C(=O)Nc3ccccc3OC(F)F)CC2=O)cc1 (stereo not given),-4,-7%,.,.,-2.6,.,0.0,2.0
Cc1ccc(C)c(NC(=O)COc2coc(CN3CCc4ccccc4C3)cc2=O)c1,.,-5%,0.2,1,-0.6,4,0.4,10.0
CC(=O)NC(CC(=O)OCC(=O)c1cc(C)ccc1C)c1ccccc1 (stereo not given),1,.,.,.,6.4,.,1.3,-3.3
CSc1nnc(Cn2c(=O)sc3ccccc32)n1-c1cccc(Cl)c1,-5,-3%,2.6,22,1.9,3,-0.4,.
CC(C)CC(=O)OCC(=O)Nc1ccccc1Sc1ccccc1,-7,-9%,3.4,-7,0.6,15,0.2,-7.1
CCN(CC)C(=O)CSc1nnnn1-c1ccc(F)c(Cl)c1,-1,27%,-6.3,-4,-2.2,18,0.5,-13
CN1CCN(CC(=O)N(C)c2nc(-c3ccccc3)cs2)CC1,-3,-5%,-1.0,46,-1.5,1,1.0,.
CC(C)(C)OC(=O)N1CCCN(C(=O)c2ccc(Cl)cc2)CC1,-1,-4%,-7.6,2,2.3,-10,-0.5,-0.7
N#Cc1ccc(NC(=O)COC(=O)C2=COCCO2)cc1,-3,-4%,0.9,1,2.0,-2,0.4,.
OC1CC(c2ccco2)NC2(CCCCC2)C1 (stereo not given),-3,?,?,-4,-3.3,-5,0.1,.
Cc1c(C(=O)NCc2cccnc2)oc2ccc(S(=O)(=O)N3CCCCCC3)cc12,.,-3%,3.6,25,-8.0,1,0.6,.
COC(=O)c1c(NC(=O)CC2Sc3ccc(C(F)(F)F)cc3NC2=O)sc(C)c1C (stereo not given),-5,1%,?,-17,-2.4,7,0.3,2.5
N#Cc1ccsc1NC(=O)CN1CCN(S(=O)(=O)c2ccc3ccccc3c2)CC1,-7,-46%,3.8,0,-3.4,44,0.3,-3.4
Cc1ccc(OCCn2cc(/C=C3\C(=O)NN(c4ccccc4)C3=O)c3ccccc32)cc1,2,-15%,-3.9,5,2.9,1,-0.3,.
CN(C)C(CNC(=O)c1ccc(S(=O)(=O)Nc2ccccc2F)cc1)c1ccco1 (stereo not given),2,?,.,.,-1.2,.,-0.2,-7.5
O=C(CN1C(=O)NC2(CCCC2)C1=O)NNC(=O)c1ccc(F)cc1,-17,-3%,-7.6,-5,8.0,0,0.1,-6.3
CC(C)CC1Nc2ncnc(N3CCOCC3)c2N(Cc2ccc(Cl)cc2)C1=O (stereo not given),-5,.,.,.,4.6,.,-0.3,2.3&4.3
COc1ccc2nc(SCC(=O)Nc3ccc(S(=O)(=O)Nc4nccc(C)n4)cc3)[nH]c2c1,-3,-1%,?,-3,2.1,17,-1.4,.
CC(C)(C)NC(=O)CSc1nnc(CN2CCCCCC2=O)n1-c1ccccn1,-8,-1%,-0.2,-10,0.7,-11,1.0,.
CCOc1ccc(N2CC(C(=O)Nc3nnc(Cc4ccccc4)s3)CC2=O)cc1 (stereo not given),-6,0%,-0.6,-10,-4.6,0,-0.1,0.9
O=C(CN1C(=O)NC2(CCCCCCC2)C1=O)NC1CCCc2ccccc21 (stereo not given),-5,.,5.9,5,-1.6,-6,0.3,.
COc1cccc(CNCCc2c[nH]c3ccccc23)c1OCc1ccccc1F,83*,-5%,-8.4,39,-3.2,70,0.9,.
CC(=O)N/C(=C/c1ccc([N+](=O)[O-])cc1)C(=O)O,-2,6%,2.1,-11,1.6,-16,0.6,2.2
CCOC(=O)CSc1ncc(-c2ccc([N+](=O)[O-])cc2)[nH]1,2,14%,3.4,-10,1.5,9,-0.5,5.2
Cc1ncc(CO)c2c1OC(C)(C)OC2,-2,6%,-0.5,9,2.2,43,0.2,.
c1ccc(Nc2ncnc3sc4c(c23)CCC4)cc1,.,30%,2.2,1,-1.3,-13,0.4,.
CCOc1cc(/C=C2\C(=N)N3N=CSC3=NC2=O)ccc1OS(=O)(=O)c1ccccc1,5,.,1.8,-7,-3.3,6,-0.4,0.3
COCCN(Cc1cc2cc(C)ccc2n2nnnc12)C(=S)Nc1ccccc1C,-2,.,0.7,9,8.5,4,-1.1,-2.0
CCn1cc(CN2CCC(n3nccc3NC(=O)c3ccccc3OC)CC2)cn1,-1,4%,2.3,33,-0.1,4,2.7,2.8
COc1ccc(N2CCN(Cc3cc4c(cc3O)CCC4)CC2)cc1,.,2%,1.3,21,1.6,-3,2.0,.
COc1cccc(CC2(CO)CCCN(Cc3[nH]c4ccc(C)cc4c3C)C2)c1 (stereo not given),-2,-12%,2.4,50,-3.5,-9,0.3,13
Cc1ccccc1NC(=O)Nc1ccccc1Br,7,24%,-1.9,-10,-0.1,8,-1.2,-4.8
COc1ccc(CCNC(=O)COC(=O)c2cc(OC)c(OC)cc2OC)cc1,.,.,-1.3,-3,-4.1,10,0.3,-0.5
O=C(CCl)N(C/C=C/c1ccccc1)c1ccc2c(c1)OCCO2,-18,?,3.6,93*,-1.5,-24,2.3,5.3
O=S(=O)(c1ccccc1)N1CCC(O)(CN2CCN(c3ccccc3)CC2)CC1,-11,0%,-0.3,-3,3.0,-4,1.6,-14
Cc1ccc(-c2[nH]c3cc(C(N)=O)ccc3c(=O)c2O)cc1,-4,1%,-15,-15,-1.3,-3,-1.3,-29
CSc1ccc(CCNC(=O)c2ccc(CS(=O)Cc3ccccc3Cl)o2)cc1 (stereo not given),2,-9%,-6.8,13,0.5,-5,-0.8,-0.7
CC(C)CCn1c(=S)[nH]c2ncccc2c1=O,-2,21%,?,-1,3.5,-3,0.1,.
CN(CC(=O)Nc1ccccc1Cl)C(=O)COC(=O)CSc1ccc(Cl)cc1,-3,-5%,.,.,0.3,.,-1.9,-5.3
CC(C)(C)c1cc(NC(=O)c2ccco2)no1,9,.,1.2,10,0.8,-1,-4.8,-2.0
C=CCn1c(SCC(=O)Nc2ccc3c(c2)OCO3)nnc1-c1cc(Br)ccc1O,7,3%,2.3,7,-0.2,-5,1.1,.
Cc1cc(C(=O)N2CCCC(C(=O)c3ccc4ccccc4c3)C2)nn1C (stereo not given),-2,30%,?,1,-11,0,-0.2,2.9
CC(C)NC(=O)C1CCCN(S(C)(=O)=O)C1 (stereo not given),.,2%,1.8,1,5.6,-2,0.8,.
Cc1c(C(=O)N2CCN(c3ccc(F)cc3)CC2)sc2nc(-c3ccccc3)cn12,0,49µM*!,-14,18,-1.9,0,0.6,.
O=C(c1ccc(F)cc1)C1CCN(C(=S)Nc2ccccc2)CC1,-9,-1%,-2.1,-45,1.6,7,0.1,.
Cc1cc(C)cc(NC(=O)c2ccccc2NC(=O)CCC(=O)O)c1,.,23%,-0.8,-11,-0.2,9,0.6,0.6
Cc1ccc(S(=O)(=O)c2nc(-c3cccs3)oc2NCc2cccnc2)cc1,.,-12%,1.8,-5,-28,4,0.4,6.6
Cc1ccccc1NC(=O)c1ccc(S(=O)(=O)N(C)C)cc1,.,3%,-5.8,-8,-0.4,5,0.4,4.8
Cc1ccc(NC(=O)c2ccc([N+](=O)[O-])o2)c(C)c1,-12,6%,6.5,41,2.0,34,0.1,-0.2
O=C(Cn1nnc(-c2cccc(C(F)(F)F)c2)n1)NNS(=O)(=O)c1cccc(C(F)(F)F)c1,1,3%,-1.4,-6,-9.4,11,2.1,-0.4
Cc1onc(-c2c(Cl)cccc2Cl)c1C(=O)Nc1ccc(Cl)cn1,2,.,-1.7,9,-2.7,-8,0.1,.
Cc1sc2ncnc(Sc3ccccc3C(=O)Nc3ccccc3Cl)c2c1C,-10,5%,?,21,0.0,0,-0.7,-2.0
COCCn1c(SCC(=O)Nc2cccc(OC)c2)nnc1-c1ccc(Cl)cc1,-7,1%,1.4,-3,-1.2,4,1.2,.
COc1ccc(C(=O)NCC(=O)N/N=C/c2c(C)[nH]c3ccccc23)cc1,2,-2%,1.5,4,9.1,39,0.4,-1.3

# Remaining list, next part.
SMILES,Beta cell apopt,Vif TR-FRET,RanGTP-Imp inh,T cruzi repl,LANA-H2B inh,Calb FLC,A1 inh,MLL AF4-AF9 inh
CCCCNC(=O)O[C@H]1C[C@@H]2CCN3C(=O)CCC[C@H]([C@H]1CC)[C@H]23,-5,.,-6.1,6,1.4,-7,0.9,-7.1
COc1cc(CNCCc2c[nH]c3ccccc23)ccc1OCc1ccccc1F,21,-3%,-1.5,55*,-6.5,0,0.0,-1.3
C=CCc1ccc(O)c(-c2cc(CC=C)ccc2O)c1,.,15%,2.6,9,-0.4,-3,0.9,3.8
Cc1cc(OCC(=O)NCCO)cc(C)c1Cl,1,6%,2.1,-14,-0.3,-1,0.2,.
O=C(Cn1cnc2ccccc2c1=O)N1CCN(Cc2ccccc2)CC1,-3,-1%,-1.0,3,5.3,-6,0.0,.
CCOc1ccccc1NC(=O)CC1NCCNC1=O (stereo not given),-7,?,-2.6,-14,-0.8,?,0.9,.
Cn1c2ccccc2c2nnc(SCC(=O)NCc3ccoc3)nc21,.,-5%,?,7,1.5,-6,0.3,-1.1
CCOc1ccc(Cl)cc1/C=C1/C(=O)ON=C1C,.,-1%,1.7,-2,-2.4,3,-0.2,0.0
C=CCn1c(SCC(=O)NC2CCCC2)nc2sc(C)cc2c1=O,0,4%,1.4,3,.,4,0.6,-1.3
Cc1ccc(S(=O)(=O)N2CCN(c3ccccc3)CC2)cc1C(N)=O,-1,11%,-0.6,-20,-0.4,-6,-0.5,0.9
Cc1cc(C(F)(F)F)nn1CC(=O)NCc1ccco1,0,.,-2.1,-8,-1.5,-7,0.6,-2.1
Cn1nnnc1SC1CC(=O)N(c2ccccc2)C1=O (stereo not given),1,-8%,4.2,66*,-0.4,-22,-1.0,3.5
c1ccc2c(c1)nc1n2CCN1CCNC1CCCCC1,-1,0%,-3.4,-3,6.1,-10,0.8,.
O=C(NCc1ccc(F)cc1)C1CCN(S(=O)(=O)c2ccc(Cl)cc2)CC1,-4,.,4.4,-7,1.7,12,0.2,-0.4
